VACV Venus inh = vaccinia inhibition (Venus reporter) | Vaccinia virus Venus reporter expression, fluorescence | Potency, µM (top dose mostly 36.5 µM), for the others: at the top dose activity change, negative = inhibition, actives largely listed as inhibitors | actives 0.46% (n = 330,000); active means well fitted inhibition curve with a large enough effect; inconclusive means small, poorly fitted or top-dose-only effect; inactive means no such curve, though single readings can be large or run the other way; tested in A549 cells; note: nearly all actives have a fitted effect of over 30% in size; inactives centre near -10
VACV mCherry inh = inhibitors of vaccinia virus infection (mCherry reporter signal); Vaccinia virus mCherry reporter infection, fluorescence; about a quarter of the inactives have no number; Potency, µM (series often up to 36.5 µM), for inactives: top-dose activity change, negative = inhibition, usual class: inhibitors; actives 0.63% (n = 310,000); AID 720579; active = well fitted inhibition curve with a large enough effect; inconclusive = small, poorly fitted or top-dose-only effect; inactive = no such curve, though single readings can be large or run the other way; tested in A549 cells; note: nearly all actives have a fitted effect of over 35% in size; inactives centre near -10
The depositor's hits bear a star; i = inactive; ? = inconclusive; . = not tested or not shown; & = joins results of further samples; [ ] = another dose, or the depositor's remark. % is set by controls: 0 for no effect and ±100 for the full control effect; potency is the fitted concentration of half-maximal effect.

SMILES	VACV Venus inh	VACV mCherry inh
CCOc1ccccc1OCC(=O)Nc1cc(S(=O)(=O)N2CCCCC2)ccc1N1CCN(CC)CC1	-17%	-14%
COc1ccc(CN(C)C(=O)C2CSC3(C)CCC(=O)N23)c(OC)c1 (configuration not stated)	6%	i
CC(C)(C)OC(=O)C[C@H]1C/C=C\C[C@@H](CC(=O)N(CCO)Cc2ccccc2)C(=O)N[C@H](Cc2ccccc2)COC1=O	-10%	i
COc1cccc(C(=O)N[C@@H](C)C(=O)N2CCC3(CC2)NCCc2[nH]cnc23)c1	-3%	i
Cc1cc(NC(=O)COC(=O)c2cc([N+](=O)[O-])ccc2N2CCOCC2)ccc1Br	-30%	?
O=C(NC1CCCC1)c1ccc2nc[nH]c2c1	-1%	.
CC(NC(=O)C(c1ccccc1)c1ccccc1)C(=O)O (configuration not stated)	-12%	-2%
COc1ccc(Cl)cc1N=Nc1ncc[nH]1	-3%	i
CN(C(=O)C1CCN(S(=O)(=O)c2ccccc2)CC1)c1c(N)n(Cc2ccccc2)c(=O)[nH]c1=O	-12%	i
CCOc1cc(S(=O)(=O)Nc2ncn[nH]2)ccc1Br	-3%	-14%
COc1ccc(NC(=O)C(C)Sc2cc(-c3ccccc3)nc(C)n2)cc1Cl (configuration not stated)	-23%	-17%
COc1ccccc1N(C)S(=O)(=O)c1ccc(C(=O)N(C)Cc2ccc(OC(F)F)cc2)cc1	?	-14%
CC(=O)Nc1ccc(Oc2sc(C(=O)c3ccccc3)c(N)c2C#N)cc1	?	.
O=[N+]([O-])c1sccc1CS(=O)(=O)c1ccccc1	-22%	-7%
CCN(CC)S(=O)(=O)c1cc(NC(=O)CCc2c(C)noc2C)ccc1C	-12%	i

As entered above.
CCOc1ccccc1OCC(=O)Nc1cc(S(=O)(=O)N2CCCCC2)ccc1N1CCN(CC)CC1 @ VACV Venus inh = -17%
Cc1cc(NC(=O)COC(=O)c2cc([N+](=O)[O-])ccc2N2CCOCC2)ccc1Br @ VACV Venus inh = -30%
COc1cccc(C(=O)N[C@@H](C)C(=O)N2CCC3(CC2)NCCc2[nH]cnc23)c1 @ VACV Venus inh = -3%
COc1ccccc1N(C)S(=O)(=O)c1ccc(C(=O)N(C)Cc2ccc(OC(F)F)cc2)cc1 @ VACV mCherry inh = -14%

(more compounds)
SMILES	VACV Venus inh	VACV mCherry inh
Cc1ccc(C(=O)N2CCN(c3ccccc3F)CC2)cc1S(=O)(=O)N1CCOCC1	-12%	-16%
CCC(C(=O)NCc1ccc(F)cc1)N(CCc1ccccc1)C(=O)c1snc(C(N)=O)c1N (configuration not stated)	-15%	-6%
COCCNC(=O)Cn1nc(-c2ccc(C)cc2)ccc1=O	-9%	i
Cc1ccc2c(c1)CN(CCC(=O)NCc1cc(C)n(C)n1)CC(C)O2 (configuration not stated)	-11%	-17%
CCc1sc(NC(C)=O)nc1-c1ccccc1	-17%	-23%
Cc1c(Cl)cccc1NC(=O)Nc1ccc(C(=O)N2CCCC2)cc1	-20%	-18%
CCCCn1nnc(NC(=O)c2ccc([N+](=O)[O-])cc2Cl)n1	-1%	-12%
CCC(=O)N1CCc2cc(Br)cc(S(=O)(=O)CCC(=O)Nc3cccc(CC)c3)c21	-7%	-15%
COC(=O)c1ccc(S(=O)(=O)NCc2ccc(S(N)(=O)=O)cc2)o1	-1%[7.34 µM]	-18%[7.34 µM]
O=C(OCc1ccccc1)/C(=C/c1ccc(Cl)cc1)NC(=O)c1ccccc1Cl	-9%	.
Cc1cc(=O)[nH]c(SCC(=O)Nc2nc(-c3ccccc3)c(-c3ccccc3)o2)n1	-8%	-15%
Cc1oc(-c2ccc(Cl)cc2)nc1CS(=O)CC(=O)NCc1cccs1 (configuration not stated)	-17%	-2%
O=C1OCC(c2ccccc2)=C1c1ccccc1	-8%	-14%
CCC1CCC(C(=O)NNC(=O)OC)CC1 (configuration not stated)	-10%	-11%
COCCNC(=O)CCCn1c(=O)c2cc(OC)c(OC)cc2n(CC(=O)NCCC2=CCCCC2)c1=O	-2%	i
C=CCn1c(O)c(CN2CCN(Cc3ccccc3)CC2)c(C)c(C#N)c1=O	7%	.
CCC(C)(C)NC(=O)CN(C(=O)CNS(=O)(=O)c1ccc(C)cc1)c1ccc2c(c1)OCCO2	-19%	.
COC(=O)C1(C)CCc2cc(OC)ccc2C1=O (configuration not stated)	-2%	-4%
CC(C)(C)C(=O)Nc1ccc2nc(SCC(=O)N3CCOCC3)sc2c1	-7%	-2%
O=C(NCCC(c1ccccc1)c1ccccc1)c1cnccn1	-19%	-12%
O=C(NC(=O)c1ccccc1)Nc1ccc(-c2cnco2)cc1	-3%	-15%
O=C(C[C@@H]1C/C=C\C[C@H](NC(=O)OCC2c3ccccc3-c3ccccc32)C(=O)OC[C@H]2CCCN2C1=O)N[C@@H](CO)Cc1ccccc1	?	?
Cn1c(N2CCN(S(=O)(=O)c3ccc(Cl)cc3)CC2)nc2ccccc21	-6%	-3%
COc1cc(Cc2nccc3cc(OC)c(OC)cc23)c(S(=O)(=O)O)cc1OC	0%	-15%
CCn1c(=O)c2cc(C(=O)NCCCN3CCC(C)CC3)sc2c2ccccc21	-22%	-24%
Cc1ccc(S(=O)(=O)N2CCN(C(=O)c3cccs3)CC2)cc1C	-6%	-10%
COC(=O)CCCNC(=O)c1ccc2[nH]c(C)c(C)c2c1	-13%	0%
Clc1cccc(N2CCN(c3c4c(nc5nncn35)CCC4)CC2)c1	-28%	?
Oc1ccc(N=Cc2ccc(OCc3ccccc3)cc2)cc1	9%	-16%
Cc1cc(/C=C(/C#N)C(=O)O)c(C)n1-c1cccc2ccccc12	-8%	-11%

Among those listed so far, three contain a nitro group on carbon.
SMILES	VACV Venus inh	VACV mCherry inh
Cc1cc(NC(=O)COC(=O)c2cc([N+](=O)[O-])ccc2N2CCOCC2)ccc1Br	-30%	?
O=[N+]([O-])c1sccc1CS(=O)(=O)c1ccccc1	-22%	-7%
CCCCn1nnc(NC(=O)c2ccc([N+](=O)[O-])cc2Cl)n1	-1%	-12%

Next part.
SMILES	VACV Venus inh	VACV mCherry inh
N#C/C(=C\c1cn(CC(=O)N2CCCCC2)c2ccccc12)C(=O)NCc1ccc2c(c1)OCO2	-9%	i
O=C(Nc1ccc(NC(=O)c2ccc(Cl)cc2Cl)cc1)c1ccc2c(c1)OCO2	6%	-5%
COc1cccc(CNC(=O)c2ccc(C)c(S(=O)(=O)N3CCCCC3)c2)c1	-25%	?
CNCCOc1ccccc1OC(C)C	-11%	-11%
CC(/C=C/C=C/c1ccccc1)=N/NC(=O)c1ccc2c(c1)OCCO2	-22%[7.34 µM]	i[7.34 µM]
Cc1cc(S(=O)(=O)N2CCN(Cc3noc(CCC(=O)N4CCCCC4)n3)CC2)ccc1F	-6%	-10%
Brc1cc(Cc2nnc(-c3ccccc3)o2)c(Br)s1	25%	13%
CCOc1ccc(CNC(=O)C2Cc3cc(S(=O)(=O)N4CCCCCC4)ccc3N2C(C)=O)cc1 (configuration not stated)	-14%	-7%
CCOC(=O)c1c(NC(=O)COC(=O)CCNS(=O)(=O)c2ccccc2)sc(C(=O)NC)c1C	-14%	-6%
O=C(NN=C1CCCC1)c1ccccc1O	-9%	-15%
CN(C(=O)COC(=O)C1CCN(S(=O)(=O)c2c(Cl)cccc2Cl)CC1)C1CCS(=O)(=O)C1 (configuration not stated)	-19%	-17%
CCN(CC)S(=O)(=O)c1ccc2c(c1)N(CC(=O)Nc1c(C)cccc1C)C(=O)C1CCCN21 (configuration not stated)	-14%	-6%
CCC(=O)N1CCc2cc(S(=O)(=O)CCC(=O)NCc3ccc(OC)cc3)ccc21	-8%	-3%
CC1(C(=O)Nc2cnc3ccccc3c2)CCN1C(=O)c1ccccc1CCc1ccccc1 (configuration not stated)	-14%	i
CC1(c2ccc(Cl)cc2)NC(=O)N(CC(=O)NCc2cccs2)C1=O (configuration not stated)	-12%	-12%
N#Cc1cn(CC(=O)N2CCc3ccccc3C2)c2ccccc12	-19%	.
O=C(NC(C(=O)c1ccccc1)N1CCCCCC1)c1ccco1 (configuration not stated)	-7%	-14%
CCCC1CCc2c(c3ccccc3[nH]c2=O)O1 (configuration not stated)	-14%	-27%
CCCCCn1c(N)c(C(=O)NCCN2CCOCC2)c2nc3ccccc3nc21	?	.
COc1cccc(Cn2nc3c4cc(F)ccc4n(Cc4ccc(F)cc4)cc-3c2=O)c1	-6%	-24%
C[C@H]1CN(c2ccccc2)C(=O)[C@@H]1CC(=O)Nc1ccc(Br)cc1	-15%	16%
CCOC(=O)c1cccc(NC(=O)/C(=C\c2ccccc2)NC(=O)c2ccccc2Cl)c1	-8%	-22%
O=C(CCNS(=O)(=O)c1ccc2c(c1)CCC(=O)N2)Nc1ccc(F)c(F)c1	-9%	-7%
CCN(C(=O)COC(=O)/C=C/c1ccccc1[N+](=O)[O-])C1CCS(=O)(=O)C1 (configuration not stated)	-1%	1%
CC(=NNC(=O)C(C)SC(C)C(=O)NN=C(C)c1cccnc1)c1cccnc1 (configuration not stated)	-3%	i
CCc1nn(-c2ccccc2)c(N)c1C#N	9%	i
Cc1csc(=N)n1CC(=O)N1CCc2ccccc21	3%	.
NC(=O)CN(c1ccccc1)C1SC(=O)N(Cc2ccccc2)C1=O (configuration not stated)	-5%	-7%
Cc1ccc(NC(=O)C(C)N2C(=O)c3ccccc3C2=O)cc1 (configuration not stated)	-11%	i
Cc1ccc(C(=O)N/C(=C\c2cccnc2)C(=O)N2CCCC2)cc1	-16%	?

A stretch from the list above, as a working copy:
SMILES	VACV Venus inh	VACV mCherry inh
CCc1nn(-c2ccccc2)c(N)c1C#N	9%	i
Cc1csc(=N)n1CC(=O)N1CCc2ccccc21	3%	.

Following part
SMILES	VACV Venus inh	VACV mCherry inh
Cc1ccccc1CN1C(=O)CS/C1=N/N=C/c1ccco1	-14%	-17%
CC(C)OC(=O)c1c(-c2ccccc2)c(-c2ccccc2)nn(C)c1=O	-15%	-8%
CC(=O)Oc1cc2c(C(=O)NCCCN3CCOCC3)c(C)oc2c2ccccc12	-17%	i
COC(=O)c1ccccc1NC(=O)Cn1nnc2sc(-c3ccccc3)cc2c1=O	3%	-11%
O=C(Nc1cc(Cl)ccc1-n1cncn1)c1cc(F)cc(F)c1	-11%	i
CC12CCC(C(=O)CC1=O)C2(C)C (configuration not stated)	-12%	-23%
N#Cc1c(Nc2ccccc2Cl)s[nH]c1=O	-5%	-8%
Nc1ncc(Br)cc1Br	-16%	-13%
COc1cccc(C(=O)N2CCc3c([nH]c4ccccc34)C2c2ccc(SC)cc2)c1 (configuration not stated)	-7%	-16%
CC(C)C[C@H]1CN([C@@H](Cc2ccc(O)cc2)CN2CCC[C@@H]2CN2C(=S)NC[C@@H]2Cc2ccccc2)C(=S)N1CC1CCCCC1	-18%	-14%
Cc1cccc(C(c2sc3nc(-c4ccco4)nn3c2O)N2CCN(c3ccccc3)CC2)c1 (configuration not stated)	-6%	-9%
C#CCN(C(=O)Nc1ccccc1)c1ccccc1	-18%	-17%
COc1cc(-c2c(-c3ccc4c(c3)OCO4)noc2C)ccc1F	?	-14%&-2%
O=C(O)CCC(=O)Nc1ccc(S(=O)(=O)Nc2nccs2)cc1	-11%&-2%	-7%
CCc1cccc(Nc2cc(C)nc3ncnn23)c1	-11%	-17%

Full records, quoted from the list:
CC(=O)Oc1cc2c(C(=O)NCCCN3CCOCC3)c(C)oc2c2ccccc12 as listed: VACV Venus inh = -17%; VACV mCherry inh = i
CC(C)OC(=O)c1c(-c2ccccc2)c(-c2ccccc2)nn(C)c1=O as listed: VACV Venus inh = -15%; VACV mCherry inh = -8%

Later entries
SMILES	VACV Venus inh	VACV mCherry inh
CC1NC(=O)c2cccnc2-n2c1nc1cc(F)ccc1c2=O (configuration not stated)	12%	-15%
Oc1ccccc1-c1nc2ccccc2nc1-c1ccccc1	-7%	-7%
N=c1ccn(Cc2cccc(F)c2)cc1	-27%	?
O=[N+]([O-])c1ccc(Nc2ccc3ccccc3c2)nc1	-8%	-21%
O=C(COc1ccccc1)Nc1ncccn1	-9%	0%
Cc1ccc(S(=O)(=O)N(C)CC(=O)Nc2ncccc2C)cc1	-11%	-14%
COc1ccccc1N1CCSC1C(N)=O (configuration not stated)	3%	.
Cc1ccc(-c2noc(-c3ccccc3NC(=O)C3CC(=O)N(c4ccccc4C)C3)n2)cc1 (configuration not stated)	-8%	-21%
N#Cc1ccc(NC(=O)C2CC(c3ccc(F)cc3)=NO2)cc1 (configuration not stated)	-13%	-4%
N#Cc1ccc(OCc2cccc(S(=O)(=O)N3CCOCC3)c2)cc1	-10%	-13%
COc1ccc(N2CCN(C(=O)c3cc(-c4ccc(C)c(F)c4)on3)CC2)cc1	-7%	-4%
COc1ccc(NC(=O)NC2(C(=O)N3CCCCCC3)CCCCC2)cc1	-13%	-16%
COc1ccc(-c2coc3c(C(=O)NCc4ccco4)cccc23)c(C)c1	-13%	0%
C=CCN(c1ccccc1)S(=O)(=O)c1cccc(C(=O)NCc2ccncc2)c1	-17%	?
Cc1onc(-c2c(Cl)cccc2Cl)c1C(=O)c1c[nH]c(C(=O)NCC2CCCO2)c1 (configuration not stated)	-10%	-11%
CCOC(=O)c1cc2c(=O)n3ccccc3nc2n(C)c1=NC(=O)c1cc2ccccc2o1	-8%	2%
CCN1C(=O)C(CC(=O)Nc2cccc(C(C)=O)c2)S/C1=N\c1ccccn1 (configuration not stated)	-26%	i
CC(C)C(=O)N1CCN(c2ccccc2N)CC1	4%	?
CCc1ccc(NC(=O)CSc2nc3c(sc4ccccc43)c(=O)n2CCN(CC)CC)cc1	-18%	?
CCCCN1c2ccccc2N(CCCO)c2cc(C)nnc21	-7%	-14%
Cc1c(NC(C)c2cc(Cl)ccc2O)c(=O)n(-c2ccccc2)n1C (configuration not stated)	-12%	-8%[1.46 µM]

Screening data (PubChem BioAssay)

Not a hit list; 0.86% or so of the library scored in one or more.
